Source: PubChem BioAssay
2A StopGo – lowers the luciferase signal of an FMDV 2A StopGo reporter; hit rate 1.2% among 410,000; AID 1159524; Potency, µM (series often up to 57.9 µM), for the others: at the highest dose signal change, negative = less light; human cells with a luciferase reporter of 2A StopGo recoding; control for the full effect not named in the record; active = well fitted falling curve with a large enough effect; inconclusive = small, poorly fitted or top-dose-only effect; inactive = no such curve, though single readings can be large or run the other way; tested in HEK293T cells; note: nearly all actives have a fitted effect of over 45% in size; luciferase light after 4 h
RE007 growth inh – less growth of the S. pombe RE007 Vpr strain; S. pombe RE007 Vpr strain, BacTiter-Glo ATP luminescence, 24 h; control for the full effect not named in the record; Potency, µM (series often up to 92.2 µM), inactives show at the highest dose activity change, negative = less growth; hit rate 0.21% among 360,000; active = well fitted falling curve with a large enough effect; inconclusive = small, poorly fitted or top-dose-only effect; inactive = no such curve, though single readings can be large or run the other way;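 note: nearly all actives have a fitted effect of over 50% in size; the assay follows cell death caused by Vpr and the record does not say whether a fall means rescue or toxicity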
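Fission yeast strain RE007, carrying one chromosomally integrated HIV-1 vpr copy, was seeded at OD 0.01 in PMG+AL medium with 23 nL pinned compound. After 24 h at 30 °C and 99% humidity, viability was read by BacTiter-Glo luminescence.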
* marks the source's active call; other numbers are inactive results; u = inconclusive; [ ] = dose if it differs, or a comment. % is set by controls: 0 for no effect and ±100 for the full control effect; potency is the fitted concentration of half-maximal effect. An excerpt. The share of hits here may be higher or lower than overall.

SMILES	2A StopGo	RE007 growth inh
COc1ccc(CCCNC(=O)C2Cc3c(-c4ccc5c(c4)OCO5)ccnc3O2)cc1 (stereo not drawn)	-4%	-4%
Cc1cc(C)n2nc(C(=O)OCC(=O)NC3CCS(=O)(=O)C3)nc2n1 (stereo not drawn)	-22%	-4%
CCCCCCN1C[C@@H](n2cc(COC(=O)c3ccccc3)nn2)[C@H](O)C[C@@H]1c1ccc(C)cc1	-26%	7%
CN(C)CCn1nnnc1SCC1=C(C(=O)O)N2C(=O)[C@@H](NC(=O)Cc3csc(N)n3)[C@H]2SC1	-13%	9%[18.4 µM]
O=C(Nc1cccc(Cl)c1Cl)c1csc([C@@H]2O[C@H](CO)[C@@H](O)[C@H]2O)n1	17%	1%
Cc1sc2ccccc2c1CNC[C@H]1O[C@@H](n2cnc(C(N)=O)n2)[C@H](O)[C@@H]1O	-17%	20%
CCOc1cc(OCC)cc(C(=O)NCCN2CCC(n3c(=O)[nH]c4ccccc43)CC2)c1	-4%	3%
O=C(NCC1=C(c2ccc3ccccc3c2)C[C@@H]2CC[C@H]1N2Cc1ccco1)c1nccs1	0%	2%
N#Cc1ccc(C(C(=O)NCc2ccccc2)n2c(=O)c(-c3cc4ccccc4[nH]3)nc3ccccc32)cc1 (stereo not drawn)	-7%	-3%
O=c1ccn([C@@H]2O[C@H](CNCc3ccc(-c4cc(C(F)(F)F)ccc4Cl)o3)[C@@H](O)[C@H]2O)c(=O)[nH]1	-28%	0%
CC(=O)C1=C(O)C2(C)c3c(O)c(C)c(O)c(C(C)=O)c3OC2CC1=O (stereo not drawn)	10µM*	9%
CC(=O)Nc1ccc(-c2ccnc3c2CC(C)(C(=O)NCc2ccc(N(C)C)cc2)O3)cc1 (stereo not drawn)	0%	3%
COc1ccc(OC)c(CN2C(=O)c3ccccc3C2c2nnnn2C(C)C)c1 (stereo not drawn)	11%	-13%
C[C@@H]1CN([C@@H](C)CO)S(=O)(=O)c2ccc(Br)cc2O[C@H]1CN(C)Cc1ccc(-c2ccccc2)cc1	0%	0%
CCOc1ccc(Cl)cc1-c1cc(C(=O)NCc2cccs2)[nH]n1	-8%	25%
COc1ccc2c(c1)OC[C@H]1[C@H]2N2C(=O)CN(Cc3ccccc3)C(=O)[C@@]2(C)[C@H]1c1ccccc1	-25%	-11%
CC(C)(C)OC(=O)N1CCC2(CC1)Oc1ccc(Cl)cc1C(=O)C21CC(c2ccc(Cl)cc2)=NO1 (stereo not drawn)	-8%	-7%
COC(=O)/C=C/c1cc(F)ccc1S(=O)(=O)NC(C)(C)C	-1%	5%
CC(C)C[C@@H]1COc2cccc(N3CCN(Cc4ccccc4F)CC3)c2S(=O)(=O)N1	-24%	-29%
O=C(CCNC(=O)N1CC(=O)Nc2ccccc21)NCCc1ccc(Cl)cc1	-19%	7%

Taken from above:
COc1ccc(OC)c(CN2C(=O)c3ccccc3C2c2nnnn2C(C)C)c1 (stereo not drawn) in RE007 growth inh is entered as -13%
COc1ccc2c(c1)OC[C@H]1[C@H]2N2C(=O)CN(Cc3ccccc3)C(=O)[C@@]2(C)[C@H]1c1ccccc1 in RE007 growth inh is entered as -11%
O=c1ccn([C@@H]2O[C@H](CNCc3ccc(-c4cc(C(F)(F)F)ccc4Cl)o3)[C@@H](O)[C@H]2O)c(=O)[nH]1 in 2A StopGo is entered as -28%
CN(C)CCn1nnnc1SCC1=C(C(=O)O)N2C(=O)[C@@H](NC(=O)Cc3csc(N)n3)[C@H]2SC1 in RE007 growth inh is entered as 9%[18.4 µM]

(next part)
SMILES	2A StopGo	RE007 growth inh
CC1CN(S(=O)(=O)c2cccc(C(=O)Nc3ccc(N4CCCCC4)cc3)c2)CC(C)O1 (stereo not drawn)	-16%	20%
O=C(NCc1ccccc1)c1cc(C2COCCN2C(=O)c2ccc(Cl)cc2)on1 (stereo not drawn)	-15%	-1%
COC(=O)NC1CC2C=CC1C1C=CC21 (stereo not drawn)	-4%	1%
Cc1ccc(C(=O)NCCCN2CCN(CCCNC(=O)c3ccc(C)cc3)CC2)cc1	-18%	2%
O=C(Cc1ccc(NC(=O)C2CCN(C(=O)c3ccccc3)CC2)cc1)Nc1cccc(C(=O)N2CCCC2)c1	-14%	-5%
CC1(C(=O)Nc2cnc3ccccc3c2)CCN1Cc1ccc2c(c1)OCCO2 (stereo not drawn)	-3%	1%[18.4 µM]
COC(=O)C1(C(=O)OC)c2ncccc2N(S(=O)(=O)c2ccc(C)cc2)C1CC(=O)c1ccccc1 (stereo not drawn)	-16%	-6%
COc1ccc(CNC(=O)c2cn(Cc3ccccc3OC)c(=O)s2)cc1	-7%	26%[18.4 µM]
COc1ccc(-c2nc(NCCN(C)C)nc3ccsc23)c(C)c1	-4%	-5%
CC(C)(C)OC(=O)Nc1ccccc1-n1nnnc1C(C(=O)c1ccc(F)cc1)N1CCN(c2ccccn2)CC1 (stereo not drawn)	9%	-18%
COc1cc(C)ccc1S(=O)(=O)NC(=O)C1(C)CCN1C(=O)c1ccc(C(F)(F)F)nc1C (stereo not drawn)	-12%	5%
CC(C)(C)Cc1c(-c2ccccc2)nc2ccc(Br)cn12	-20%	-10%
CN(Cc1ccccc1)C(=O)c1ccc(Nc2nc(CN)cs2)nc1	20%	5%
COc1ccc(-c2csc(C(C)(O)c3ccccc3)n2)cc1 (stereo not drawn)	-4%	1%
C=C1C(=O)OC2C1CCC(C)C1(O)C=CC(=O)C21C (stereo not drawn)	40µM*	-7%
O=C1[C@H](Cc2ccccc2)NCCCC[C@@H](c2ccco2)N1Cc1ccccc1	-19%	-14%
COc1ccc(CNC(=O)C2Cc3c(-c4cccc(F)c4)ccnc3O2)cc1OC (stereo not drawn)	0%	-5%
Cc1cn(CC(=O)NCCc2c[nH]c3ccccc23)c(=O)[nH]c1=O	-6%	3%
CCN1CCN(C(=O)c2cc(COc3ccc(F)c(F)c3)on2)[C@@H](C)C1=O	10%	-2%
CC1(C(=O)Nc2ccc(Cl)c(C(F)(F)F)c2)Cc2c(-c3ccc4c(c3)OCO4)ccnc2O1 (stereo not drawn)	-14%	0%

Single records (already shown).
Shown for COc1cc(C)ccc1S(=O)(=O)NC(=O)C1(C)CCN1C(=O)c1ccc(C(F)(F)F)nc1C (stereo not drawn) = 2A StopGo: -12%; RE007 growth inh: 5%
Shown for CN(Cc1ccccc1)C(=O)c1ccc(Nc2nc(CN)cs2)nc1 = 2A StopGo: 20%; RE007 growth inh: 5%

New compounds follow.
SMILES	2A StopGo	RE007 growth inh
O=C(NCc1ccc(F)cc1)c1ccc2c(c1)S(=O)(=O)c1ccccc1C2=O	-3%	2%
CC(=O)Nc1ccc(CNc2nc(NC(C)C)nc3cc(-c4ccccc4)sc23)cc1	46%[activator]	-21%[18.4 µM]
Oc1ccc(C[C@H]2CNC(=S)N2CC2CCCN2C[C@H](Cc2ccc(O)cc2)N2C[C@H](Cc3ccccc3)N(CCc3ccccc3)C2=S)cc1 (stereo partly drawn)	-7%	-15%
COC(=O)CNC(=O)CSc1nc2sc(-c3ccccc3)cc2c(=O)n1-c1ccccc1	-20%	-1%
CCc1ccc(N2CC(C(=O)OCC(=O)N(CC)c3c(N)n(Cc4ccccc4)c(=O)[nH]c3=O)CC2=O)cc1 (stereo not drawn)	-2%	5%
CCOC(=O)[C@]12CCCC=C1N(CCc1ccc(OC)c(OC)c1)C(=O)[C@H](CC(=O)NCc1ccccc1)C2	-6%	-4%
O=C1CCN(CCCN2CCC(=O)NC2=S)C(=S)N1	-1%	-6%
COc1ccc(C(C(=O)NC(C)(C)C)n2c(=O)c(-c3ccccc3)nc3ccccc32)cc1 (stereo not drawn)	-13%	20%
O=c1[nH]c(Nc2ccccc2Cl)cc2ccccc12	26%	-14%
CC1(C(=O)Nc2cccc(C#N)c2)CCN1C(=O)c1ccccc1CCc1ccccc1 (stereo not drawn)	-20%	-1%[18.4 µM]
CC#CCOCC1CN(C)C(=O)O1 (stereo not drawn)	-19%	-11%
CCCCC(=O)N(C)c1c(C)nc2ccc(C(=O)Nc3cccc(NS(C)(=O)=O)c3)cn12	-19%	-17%
O=C(CCC(=O)Nc1cccnc1)Nc1cccnc1	-21%	-6%
CC(c1ccon1)N(C)C(=O)c1cccc(OC2CCN(S(C)(=O)=O)CC2)c1 (stereo not drawn)	-11%	-1%
CCc1ccc([C@@H]2C[C@H]3[C@@H](CN2S(=O)(=O)c2ccc(C)cc2)C(=O)C[C@@H](c2ccc(Cl)cc2)N3S(=O)(=O)c2ccccc2C)cc1	-19%	6%
Cc1ccccc1C(=O)NC1CC2CCCC(C1)N2CC(C)C (stereo not drawn)	-12%	-9%
CS(=O)(=O)N1CCC(C(=O)Nc2ccc(Cl)cc2Cl)CC1	-2%	-15%
C[C@H](CO)N1C[C@H](C)[C@H](CN(C)C(=O)Nc2ccc3c(c2)OCCO3)OCc2cnnn2CCCC1=O	22%	6%
CCCc1nc2c(C)cc(Br)cn2c1Cc1ccccc1C(F)(F)F	-26%	u
O=C(Nc1ccc2c(c1)OCCO2)C(c1cc2ccccc2o1)N1CCC(Cc2ccccc2)CC1 (stereo not drawn)	31%[activator]	-11%

Structural class: the compounds so far containing a furan ring, fused or not (4)
SMILES	2A StopGo	RE007 growth inh
O=C(NCC1=C(c2ccc3ccccc3c2)C[C@@H]2CC[C@H]1N2Cc1ccco1)c1nccs1	0%	2%
O=c1ccn([C@@H]2O[C@H](CNCc3ccc(-c4cc(C(F)(F)F)ccc4Cl)o3)[C@@H](O)[C@H]2O)c(=O)[nH]1	-28%	0%
O=C1[C@H](Cc2ccccc2)NCCCC[C@@H](c2ccco2)N1Cc1ccccc1	-19%	-14%
O=C(Nc1ccc2c(c1)OCCO2)C(c1cc2ccccc2o1)N1CCC(Cc2ccccc2)CC1 (stereo not drawn)	31%[activator]	-11%

Carrying on:
SMILES	2A StopGo	RE007 growth inh
Cc1ccc(-c2nc3ccc(Cl)cn3c2Cc2cccc(Cl)c2)cc1	31%[activator]	-16%
COc1ccc(OC)c(NC(=O)Nc2ccc3[nH]ccc3c2)c1	10%	-17%
CCOC(=O)C1=C[C@@H](C(C)(C)C)N(S(=O)(=O)c2ccc(C)cc2)[C@H]1c1ccccc1Cl	u	2%
COc1ccc(CC(=O)N(C)Cc2ccc(OC(F)F)cc2)cc1S(=O)(=O)N1CCOCC1	-24%	-3%
C=CC(=O)Nc1cccc(N(C)c2ccnc(Nc3ccc(N4CCN(C)CC4)cc3)n2)c1	u	-29%
CCN(C(=O)COC(=O)/C=C/c1nc2ccccc2s1)c1c(N)n(Cc2ccccc2)c(=O)[nH]c1=O	37%[activator]	-15%
CCCNC(=O)C1(C)CCN(C(=O)c2ccccc2F)C1 (stereo not drawn)	-13%	12%[18.4 µM]
Cc1ccc(S(=O)(=O)N(C)CC(=O)N(C)CCOc2ccccc2)cc1	-12%	-3%
O=C(Nc1ccc(Oc2ccccc2)cc1)c1csc(COCCO)n1	0%	11%
O=C(NCc1ccccc1Cl)c1csc(COCCO)n1	-6%	6%[18.4 µM]
CCc1ccc(C=C2SC(=S)N(CCCC(=O)Nc3ccc(C(=O)O)cc3)C2=O)cc1	3%	2%
O=C(c1ccccc1)c1ccsc1C(=O)c1ccccc1	-7%	2%
Cc1ccc(S(=O)(=O)N2C[C@]3(O)C[C@@H]4C(=O)N(c5ccccc5)C(=O)[C@@H]4C[C@]3(OC(=O)Nc3c(C)noc3C)C2)cc1	-20%	18%
CC1C(=O)N(Cc2cn(CCC3OCCCO3)nn2)CCS(=O)(=O)N1Cc1ccc(-c2ccc(Cl)c(Cl)c2)cc1 (stereo not drawn)	u	5%
CC(C)NC(=O)C1(C)CCN1C(=O)c1c(F)cccc1F (stereo not drawn)	-11%	-11%
CCN(CC)C(=O)C1=C(C)N(Cc2ccccc2)C(=O)C(CC(=O)NCC2CCCCC2)C1 (stereo not drawn)	5%	-3%
N#Cc1c(N)[nH]c(C(=O)c2ccccc2)c1-c1ccccc1Br	-15%	-3%
NC(c1csc(Nc2nncc3ccccc23)n1)c1ccccc1Cl (stereo not drawn)	-22%	-5%
CC(C)c1ccc(NC(=O)Nc2nc(C(N)c3ccccc3Cl)cs2)cc1 (stereo not drawn)	u	-4%
CCOC(=O)[C@]12Cc3cc(OC)ccc3[C@H]1N(C1CCCCC1)C(=O)c1ccccc12	8.9µM*	u

Next section; the last three above are carried over.
SMILES	2A StopGo	RE007 growth inh
NC(c1csc(Nc2nncc3ccccc23)n1)c1ccccc1Cl (stereo not drawn)	-22%	-5%
CC(C)c1ccc(NC(=O)Nc2nc(C(N)c3ccccc3Cl)cs2)cc1 (stereo not drawn)	u	-4%
CCOC(=O)[C@]12Cc3cc(OC)ccc3[C@H]1N(C1CCCCC1)C(=O)c1ccccc12	8.9µM*	u
CCCNC(=O)C1(C)CCN(C(=O)c2oc3ccccc3c2C)C1 (stereo not drawn)	-23%	-7%[18.4 µM]
COc1ccc(OC)c(NC(=O)Nc2nnc([C@@H]3O[C@H](CO)[C@@H](O)[C@H]3O)s2)c1	-13%	3%[18.4 µM]
O=C(Nc1ccccc1)C1Cc2c(-c3ccc(Cl)cc3)ccnc2O1 (stereo not drawn)	u	u
Cc1cccc(C)c1NC(=O)C(c1ccncc1)n1c(=O)c(-c2ccco2)nc2ccccc21 (stereo not drawn)	31%[activator]	2%
Cc1ccc(-c2nc3c(Cl)cc(C(F)(F)F)cn3c2Cc2ccccc2C(F)(F)F)cc1	-26%	-14%
CC(C)(C)C1CCSC2=NCCC[C@]2(c2ccccc2)C1 (stereo partly drawn)	-25%	-7%
O=C1NN=C2CCCCCC12 (stereo not drawn)	0%	13%
